StopGo reporter – FMDV 2A StopGo reporter, luciferase signal | human cells with a luciferase reporter of 2A StopGo recoding; control for the full effect not named in the record | Potency, µM (highest dose often 57.9 µM), for the others: at the highest dose signal change, negative = less light | 1.2% of 410,000 active; active = well fitted falling curve with a large enough effect; inconclusive = small, poorly fitted or top-dose-only effect; inactive = no such curve, though single readings can be large or run the other way; tested in HEK293T cells; also: % is scaled to controls: 0 for no effect and ±100 for the full control effect; nearly all actives have a fitted effect of over 45% in size; luciferase light after 4 h
SARS PLP yeast – SARS-CoV PLP inhibition in yeast; S. cerevisiae expressing SARS-CoV PLpro, growth rescue; control for the full effect not named in the record; Potency, µM (titrated, usually from 32.9 µM), without a hit: at the highest dose activity, positive = growth rescue; 0.19% of 330,000 active; AID 485353; active means well fitted rising curve with a large enough effect; inconclusive means small, poorly fitted or top-dose-only effect; inactive means no such curve, though single readings can be large or run the other way; also: 0% is about no effect; nearly all actives have a fitted effect of over 55% in size; growth read by luminescence after 48 h
RE007 growth inh – less growth of the S. pombe RE007 Vpr strain. S. pombe RE007 Vpr strain, BacTiter-Glo ATP luminescence, 24 h; control for the full effect not named in the record. Potency, µM (highest dose often 92.2 µM), inactives show at the highest dose activity change, negative = less growth. 0.21% of 360,000 active. AID 651644; active = well fitted falling curve with a large enough effect; inconclusive = small, poorly fitted or top-dose-only effect; inactive = no such curve, though single readings can be large or run the other way;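 also: % is scaled to controls: 0 for no effect and ±100 for the full control effect; nearly all actives have a fitted effect of over 50% in size; the assay follows cell death caused by Vpr and the record does not say whether a fall means rescue or toxicity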
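Fission yeast RE007 carrying one integrated HIV-1 vpr copy, seeded at OD 0.01 in PMG+AL medium with 23 nL pinned compound. Grown 24 h at 30 degrees; viability read by BacTiter-Glo luminescence after 5 min.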
The depositor's hits bear a star; ? = inconclusive; [ ] = dose if it differs, or a comment. Potency is read from the fitted curve at half-maximal effect. Only part of the results is shown; count on the stated rates, not on these rows.

SMILES	StopGo reporter	SARS PLP yeast	RE007 growth inh
CCCc1cc(NC(=O)COC(=O)c2nccnc2N)n(-c2ccccc2)n1	-5.5%	1.4%	-5.2%
CCOc1ccc(S(=O)(=O)N2CCN(CN3C(=O)CC4(CCCC4)C3=O)CC2)cc1	-20.3%	3.2%	-13.7%
CC(C)(C)OC(=O)NCc1ccc(NC(=O)c2nc[nH]c2C(=O)NCCCCNC(=O)c2[nH]cnc2C(=O)Nc2ccc(CNC(=O)OC(C)(C)C)cc2)cc1	?	0.2%	4.4%
CCOC(=O)Cc1csc(N(C)C)n1	13.2%	-1.0%	19.8%
COc1ccccc1NS(=O)(=O)c1ccc(C)c(C(=O)N2CCCC2)c1	8.9%	-0.2%	3.8%
Cc1cc(Br)ccc1NC(=O)CN(C)C(=O)c1ccc2ccccc2n1	43.7%[activator]	2.9%	-19.0%
COc1cc(OC)cc(-c2c(-c3cccs3)c3cc(-c4cc(OC)c(OC)c(OC)c4)ccc3n2C)c1	-6.8%	2.0%	13.1%
O=C(COC(=O)c1cccc(Cl)c1)NC1CCS(=O)(=O)C1 (configuration not stated)	-2.2%	-0.4%	0.4%
COc1ccc(S(=O)(=O)N2CCCCC2)cc1NC(=O)CNc1ccccc1N1CCCC1=O	-7.0%	0.9%	7.5%
COc1ccc(OC)c(NC(=O)COC(=O)c2n[nH]c3ccccc23)c1	?	-2.7%	50.1%
Cc1cccc(C(=O)OCC(=O)NC(C)C2CC3CCC2C3)c1O (configuration not stated)	-20.9%	-5.3%	-9.3%
CC(C)(C)c1ccc(C(=O)CCC(=O)NCc2ccccc2)cc1	-8.0%	2.3%	-8.7%
O=C(Nc1cccc(S(=O)(=O)N2CCCCC2)c1)C1COc2ccccc2O1 (configuration not stated)	-21.8%	-7.5%	-6.1%
O=C(O)c1cccc2c1C(=O)c1ccc(-c3ccc(Cl)c(C(F)(F)F)c3)cc1S2(=O)=O	45.2%[activator]	-1.2%	14.5%
COc1cccc(NC(=O)/C=C/c2ccc(S(=O)(=O)N3CCOCC3)cc2)c1	-22.6%	-2.4%	5.0%
NC(=O)c1nc(C(=O)N2CCN(c3ccccc3)CC2)c2ccccc2n1	-13.0%	-0.4%	15.4%
CC(CCCCCCCCC(=O)O)N(CCO)C(=O)OC(C)(C)C (configuration not stated)	-15.9%	-1.4%	3.5%
CN(C)S(=O)(=O)c1cccc(NC(=S)N2CCc3ccccc32)c1	-14.4%	-2.2%	13.5%
CC(C)(C)OC(=O)C[C@H]1C/C=C\C[C@@H](CC(=O)N[C@@H](CO)Cc2ccccc2)C(=O)NC[C@H](c2ccccc2)OC1=O	-25.7%	3.55µM*	-9.0%
CCN1CCN(C(=O)C2CCN(C(=O)Nc3ccccc3)CC2)CC1	-23.4%	7.7%	1.0%
O=C(CSc1nccn1-c1cccc(Cl)c1)NO	-15.5%	3.7%	-1.8%
CC(C)(C)CC(=O)N1CCN(c2ccc(S(=O)(=O)N3CCOCC3)cc2[N+](=O)[O-])CC1	?	-4.5%	-19.3%
COC(=O)c1ccc(CNC(=O)c2ccc3c(c2)S(=O)(=O)N=C2CCCCCN23)cc1	33.9%[activator]	4.7%	1.3%
Cc1ccc(NC(=O)c2ncn(CC(=O)NCc3ccc4[nH]ccc4c3)n2)cc1C	22.4%	1.2%	3.2%
N#Cc1ccc(OCC(=O)Nc2nc(-c3ccncc3)cs2)cc1	-13.3%	2.3%	-7.3%
The list goes on:
SMILES	StopGo reporter	SARS PLP yeast	RE007 growth inh
O=C1CN(C(=O)COc2ccc(Br)cc2Br)c2ccccc2N1	-3.7%	1.1%	3.1%
COc1ccc(S(=O)(=O)N(C)C[C@H]2Oc3ccc(NS(=O)(=O)c4c(C)noc4C)cc3C(=O)N([C@H](C)CO)C[C@@H]2C)cc1	-0.9%	0.2%	4.8%
COCCCn1c(SCC(=O)NC2CCS(=O)(=O)C2)nnc1-c1ccc(Cl)cc1 (configuration not stated)	-3.6%	-19.1%	6.7%
CCCCN(CC)C(=O)CSc1nc2c(sc(=S)n2-c2ccc(OCC)cc2)c(=O)[nH]1	-19.5%	-4.8%	22.4%
O=C(Nc1cccc(S(=O)(=O)N2CCCC2)c1)c1ccco1	-18.7%	-9.9%	11.3%
COc1cc(NC(=O)c2ccc(OCc3c(C)noc3C)c(OC)c2)cc(OC)c1	?	-1.0%	0.0%
O=C(OCC1OC(Oc2ccc(O)cc2)C(O)C(O)C1O)c1ccccc1 (configuration not stated)	-18.5%	-1.5%	4.0%
Cc1ccc(C(=O)N2CCN(S(=O)(=O)c3sc(C(=O)O)c(C)c3C(=O)O)CC2)s1	2.8%	4.7%	-3.1%
CN(C(=O)COC(=O)c1cccc(S(=O)(=O)N(C)c2ccccc2)c1)C1CCCCC1	?	-0.1%	-0.1%
Cc1csc(=O)n1CC(=O)OCC(=O)Nc1ccc(C(N)=O)cc1	-5.7%	0.3%	4.5%
Cc1cn([C@H]2C[C@H](O)[C@@H](COS(=O)(=O)O)O2)c(=O)[nH]c1=O	-15.6%	-1.8%	-8.3%
COc1ccccc1NS(=O)(=O)c1cccc(C(=O)NNC(=O)c2ccc(NC(C)=O)cc2)c1	0.4%	10.2%	6.4%
COc1ccc(S(=O)(=O)N(C)C[C@H]2Oc3ccc(NC(=O)Nc4ccc5c(c4)OCO5)cc3C(=O)N([C@H](C)CO)C[C@@H]2C)cc1	-16.3%	5.8%	16.3%
COc1ccc(OC)c(NC(=O)CN2C(=O)NC3(CCCc4ccccc43)C2=O)c1 (configuration not stated)	-14.0%	-3.0%	2.2%
O=C1CCC/C1=C/Nc1ccc(Cl)cc1	27.5%	-3.5%	-11.0%
C[C@H](CO)N1C[C@H](C)[C@@H](CN(C)S(C)(=O)=O)Oc2c(NC(=O)Cc3ccccc3)cccc2C1=O	3.8%	-19.9%	0.1%
CC[C@@]1(C(=O)OC)N[C@H](CN(C)S(=O)(=O)c2ccc(C(F)(F)F)cc2)[C@@H]2C(=O)N(C)C(=O)[C@@H]21	-20.0%	3.5%	6.3%
CC(C)NC(=O)c1c(CSc2ccc(Cl)cc2)noc1C(=O)NCc1ccccc1	-6.0%	2.1%	10.0%
Cc1ccsc1CNCc1cc(Cl)ccc1O	27.1%	2.7%	-17.4%
Cc1cccc(C)c1NC(=O)CN(C)C(=O)C1CC1C (configuration not stated)	-11.6%	-8.1%	0.7%
OC1(c2nc3ccccc3[nH]2)CCCCC1	9.9%	0.7%	9.5%
Cn1cccc1/C=N/NC(=O)c1ccc[n+]([O-])c1	2.1%	5.6%	-12.5%
C[C@@H](C(=O)OCC(=O)c1ccccc1)N1C(=O)C2CCCCC2C1=O (some centres not stated)	25.5%	4.7%	-18.8%
COc1ccc(-c2sc3ccc(OC)cc3c2-c2ccc(OC)c(F)c2)cc1	-30.1%	-5.9%	-2.6%
O=C(Oc1ccc(Cl)c(Cl)c1)C1=CC=CN2CCS(=O)(=O)N=C12	-16.9%	-4.4%	11.6%

Rewritten field by field: part of the list above.
COc1ccccc1NS(=O)(=O)c1cccc(C(=O)NNC(=O)c2ccc(NC(C)=O)cc2)c1
  StopGo reporter: 0.4%
  SARS PLP yeast: 10.2%
  RE007 growth inh: 6.4%
COc1ccc(S(=O)(=O)N(C)C[C@H]2Oc3ccc(NC(=O)Nc4ccc5c(c4)OCO5)cc3C(=O)N([C@H](C)CO)C[C@@H]2C)cc1
  StopGo reporter: -16.3%
  SARS PLP yeast: 5.8%
  RE007 growth inh: 16.3%

The listing continues:
SMILES	StopGo reporter	SARS PLP yeast	RE007 growth inh
C=CC[C@H](CC(=O)NCCO)C(=O)N[C@H](COC(=O)[C@@H](CC=C)Cc1ccc(F)cc1)C(C)(C)C	-23.6%	9.6%	-12.5%
COc1cc(Cl)c(C)cc1NC(=O)COC(=O)C1CC1C (configuration not stated)	-12.4%	-3.6%	-1.3%
CS(=O)(=O)C1=NSC2=NC(=O)/C(=C\c3cccn3-c3ccccc3Cl)C(=N)N21	-7.2%	-0.9%	-3.8%
C[C@H](CCCC/C=C/C(=O)O)O[C@@H]1O[C@@H](C)[C@H](O)C[C@H]1O	-4.7%	1.2%	-5.9%
Cc1ccc(S(=O)(=O)CCC(=O)OC(C)C(=O)Nc2ccc(N3CCOCC3)cc2)cc1 (configuration not stated)	1.7%	-1.7%	11.4%
COc1cc(C(=O)NNC(=O)c2n[nH]c3ccccc23)cc(OC)c1OC	-8.6%	-4.3%	10.4%
CN(CC(=O)Nc1ccc(F)cc1)C(=O)COC(=O)c1ccc(=O)n(Cc2ccccc2)n1	-16.1%	3.9%	-8.6%
CC(C)(C)NC(=O)C(c1ccc(F)cc1)N(Cc1ccccc1Cl)C(=O)c1ccn[nH]1 (configuration not stated)	6.2%	0.9%	2.3%
COc1ccc(OC)c(/C=N/NC(=O)c2ccc(N(C)S(=O)(=O)c3ccccc3)cc2)c1	-24.4%	0.7%	-3.1%
CC(=O)Nc1ccc(NC(=O)CSc2ccc3nnc(CCNC(=O)c4ccccc4)n3n2)cc1	-1.7%	-1.7%	-9.1%
Cc1ccc(NC(=O)C/C(N)=N/OC(=O)Nc2cccc(Cl)c2)cc1	-7.3%	2.9%	14.1%
O=C(COC(=O)COc1cccc(F)c1)NCC1CCCCC1	-16.9%	-5.0%	22.4%
CC[C@@]12C(=O)N(c3cccc(Cl)c3)C(=O)N1[C@H](c1ccc(Br)cc1)[C@@H]1C(=O)N(C(C)(C)C)C(=O)[C@@H]12	-10.3%	1.6%	2.6%
COc1ccc2[nH]c(O)c(N=NC(=O)c3ccc(NS(=O)(=O)c4cccs4)cc3)c2c1	25.2%	2.2%	-7.8%
COc1ccccc1OCCC(=O)Nc1cccc(S(=O)(=O)N2CCOCC2)c1	-3.1%	1.2%	5.3%
CCC(C)[C@H]1CNCCN1CCc1cccc2ccccc12 (some centres not stated)	-5.2%	0.2%	4.0%
CCOC(=O)N1CCC(c2cc(=O)n(-c3ccccc3)[nH]2)CC1	-14.5%	-1.1%	0.9%
COC(=O)C1=C(c2ccc3ccccc3c2)C[C@@H]2CC[C@H]1N2C(=O)NC1CCCCC1	-13.0%	-1.1%	5.9%
CCc1sc(C(=O)N2CCN(C(=O)c3ccccc3)CC2)cc1C	-26.9%	1.1%	-0.3%
C[C@@H]1COC(=O)[C@H](CC(=O)OC(C)(C)C)C/C=C\C[C@H](CC(=O)NCCO)C(=O)N1	-22.3%	-41.9%	4.9%
CC(Sc1nnc(-c2ccco2)n1N)C(=O)NCC1CCCO1 (configuration not stated)	-13.8%	-4.3%	3.6%
CN1CC(=O)N2[C@H]3c4ccccc4OC[C@@H]3[C@H](c3ccccc3)[C@]2(C)C1=O	-20.9%	7.3%	0.6%
CSc1nc(N)nc2c1ncn2CC(=O)Nc1ccc(C)c(C)c1	?	3.1%	3.6%
CN(C(=O)COC(=O)c1ccc(Cl)nc1)c1c(N)n(Cc2ccccc2)c(=O)[nH]c1=O	-8.0%	2.7%	-2.2%
CCOC(=O)C1=CN(Cc2cccc(F)c2)S(=O)(=O)N(C)C1c1ccccc1 (configuration not stated)	7.6%	-8.2%	2.7%
Additional results follow:
SMILES	StopGo reporter	SARS PLP yeast	RE007 growth inh
CCC(CO)Oc1cc(NCc2ccc(C)cc2)c2ncn(C(C)C)c2c1 (configuration not stated)	-1.8%	-4.4%	-7.6%
NC(=O)N/N=C/c1ccc(-c2cccc(C(F)(F)F)c2)o1	24.7%	-4.2%	-1.8%
CC1(C)C[C@H]2C3=CCC4[C@@]5(C)CC[C@H](O[C@@H]6O[C@H](C(=O)O)[C@@H](O)[C@H](O)[C@H]6O)[C@@](C)(CO)C5CC[C@@]4(C)[C@]3(C)C[C@H](O)[C@@]2(CO)[C@@H](O)[C@@H]1O (some centres not stated)	-9.9%	6.0%	-12.8%
CCC(C)C(NC(=O)c1ccccc1)C(=O)Nc1ccc(S(=O)(=O)Nc2cc(C)nc(C)n2)cc1 (configuration not stated)	97.5%[activator]	-1.4%	5.1%
CC(C)n1nnnc1SCC(=O)N1CCN(Cc2ccc3c(c2)OCCO3)CC1	-19.4%	-16.5%	-6.4%
N#Cc1ccccc1OCC(=O)Nc1cccc(S(=O)(=O)N2CCCC2)c1	-8.2%	-1.4%	21.1%
O=C(Nc1ccc(Cl)cc1)C1c2cccc[n+]2CC(=O)N1Cc1ccc2c(c1)OCO2 (configuration not stated)	71.7%[activator]	-2.4%	-9.3%
CN1C(N)=NC(=O)/C1=C/c1ccc(OC(F)(F)F)cc1	15.7%	5.2%	2.9%
O=C(COC(=O)Cc1ccsc1)NNC(=O)c1ccccc1	8.8%	-1.9%	-4.0%
CCCCn1c(N)c(N(CCOC)C(=O)CSc2nnc(-c3ccco3)n2CC)c(=O)[nH]c1=O	-1.0%	4.6%	-7.0%
COc1ccc(C2(C)NC(=O)N(CC(=O)N3CCc4ccccc43)C2=O)cc1OC (configuration not stated)	-11.1%	0.9%[6.58 µM]	-6.3%
CC1(NC(=O)c2ccccc2)CCN(CCc2cccs2)C1=O (configuration not stated)	1.1%	4.7%	6.8%
O=C(NCCC(=O)N1CCCCCCC1)c1ccc(Br)cc1	6.1%	-0.4%	-1.1%

Bioassay records: PubChem BioAssay, National Center for Advancing Translational Sciences (NCATS)
